A1 inh = inhibitors of the anti-apoptotic protein A1, read as caspase activation | MEF A1-2A-BIM cells, Caspase-Glo 3/7 luminescence, 3 h; percent of clofoctol response, vehicle zero | caspase activation, % (concentration not given with the values) | 0.066% of 330,000 active;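 active means over half of replicate activation scores above 10%, or exactly half above 10 with the replicate mean above 10; inconclusive means replicate mean below 10 yet half the replicates above 10; inactive means over half of replicates below 10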;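 further: wells of about 30 µL received 50 nL stock; many hits fall short of the cut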
LANA-H2A inh = blocks KSHV LANA binding to histone H2A/H2B; Q9QR71; cell-free LANA-H2A/H2B peptide, fluorescence polarization; inhibition, % (concentration not given with the values); 0.6% of 320,000 active; AID 2629; in the data active means inhibition mostly above about 10%, no sharp cut-off; inactive means mostly below about 6.7%;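 further: stock transfer was 7.5 nL into about 10 µL; 0% = median of vehicle wells and 100% = median of positive control wells; one replicate is shown; the record names a cut of 25% in any replicate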
UCH37 inh = human UCH37 deubiquitinating enzyme inhibition; Q9Y5K5; purified proteasome/UCH37, Ub-AMC cleavage fluorescence; inhibition, % (test concentration not listed); 0.33% of 330,000 active; AID 588478;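 active means mean of two replicates above 20%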;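 further: 0% = compound-free wells with enzyme and 100% = wells lacking proteasome; stock transfer was 100 nL into about 20 µL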
Target sequence (Q9Y5K5 whole entry, looked up): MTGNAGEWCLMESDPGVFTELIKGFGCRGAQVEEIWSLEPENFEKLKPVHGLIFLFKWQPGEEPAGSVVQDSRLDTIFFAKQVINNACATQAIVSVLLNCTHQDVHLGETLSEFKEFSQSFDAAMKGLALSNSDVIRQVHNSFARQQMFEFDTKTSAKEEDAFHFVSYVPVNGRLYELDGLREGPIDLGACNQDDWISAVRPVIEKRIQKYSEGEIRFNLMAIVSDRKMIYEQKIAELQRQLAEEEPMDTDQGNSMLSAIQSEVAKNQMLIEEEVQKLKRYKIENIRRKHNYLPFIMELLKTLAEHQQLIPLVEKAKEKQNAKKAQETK
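Material: Human UCH37 enzyme supplied as purified proteasome complex | Schedule: 30 min compound-proteasome preincubation then 25 min substrate reaction, room temperature | Detection: AMC fluorescence from Ub-AMC cleavage, excitation 355 nm, emission 460 nm | Benchmarks: Wells without proteasome as full block, compound-free enzyme plus substrate as uninhibited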
HNF4A DNA FP = change in binding of human HNF4 alpha to DNA. P41235. HNF4a-FITC DNA binding, fluorescence polarization, 1 h. activity change, % at 10 µM. 0.3% of 360,000 active; in the data active means activity change above about 30%, passing the limit was not always enough;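 further: controls were the assay level and a saturating level of protein; the project sought stronger binding though the title names inhibitors; some compounds called inactive have numbers as strong as hits; positive values seem to mean higher polarization but the record does not say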
Target sequence (P41235 whole entry, looked up): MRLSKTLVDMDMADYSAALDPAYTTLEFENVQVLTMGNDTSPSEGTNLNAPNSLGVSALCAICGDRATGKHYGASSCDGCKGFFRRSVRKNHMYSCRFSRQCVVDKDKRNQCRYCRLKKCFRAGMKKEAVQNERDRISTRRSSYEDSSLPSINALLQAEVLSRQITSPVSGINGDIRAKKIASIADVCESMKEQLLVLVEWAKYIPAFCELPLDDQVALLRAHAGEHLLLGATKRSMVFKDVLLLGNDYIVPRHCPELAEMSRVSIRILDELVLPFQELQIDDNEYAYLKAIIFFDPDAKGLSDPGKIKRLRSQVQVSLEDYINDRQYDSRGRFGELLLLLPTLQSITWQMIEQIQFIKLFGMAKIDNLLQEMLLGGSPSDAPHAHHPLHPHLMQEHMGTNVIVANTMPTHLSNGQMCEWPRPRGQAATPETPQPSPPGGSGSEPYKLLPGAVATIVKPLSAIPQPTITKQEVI
Vif TR-FRET = HIV-1 Vif–A3G interaction blockers – biochemical, TR-FRET, GST-Vif 1-94, biotin-A3G peptide, dose response retest, primary screen (AID 1117319); TR-FRET GST-Vif / biotin-A3G peptide binding; higher % means a stronger effect; test concentration not given here; strong numbers were not always called active; inhibition, %; hits with a dose series show IC50 in µM; 0.57% of 260,000 active;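 active means above the screen mean plus three standard deviations and confirmed in dose response; inconclusive means results disagree or hit not tested in dose response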;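 further: Vif residues 1-94 fused to GST binding biotinylated APOBEC3G peptide 110-148; 0% = full assay without inhibitor and 100% = GST in place of GST-Vif; retest series ran down from 100 µM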
Beta2AR agonist = agonists of human beta-2 adrenergic receptor inducing internalization. P07550. Am2.2-beta2AR cells, FAP receptor internalization, flow cytometry; reference of the scale not given here. 0.43% of 340,000 active. AID 504454. response, % (no concentration beside the values);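 active means response above a set limit, near 3 SD of response in nonfluorescent compounds, cut at about 42% in these data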;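 further: stock transfer was 100 nL into about 11 µL; a reference agonist was the positive control; negative values mostly stem from fluorescent compounds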
Ecoli growth = E. coli growth inhibition; Escherichia coli growth, OD600, 23 h; stronger effect = lower value; OD600 absorbance (no concentration beside the values); 0.21% of 330,000 active;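 active means OD600 absorbance below the run mean of sample wells minus 3.6 SD, in any replicate, cut at about 0.56 in these data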;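 further: stock transfer was 300 nL into about 60 µL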
* marks the source's active call; other numbers are inactive results; & = joins results of further samples.

Results for COC(=O)c1ccc(CN(Cc2ccc(C(=O)OC)o2)C(C)(C)C)o1 ?
A1 inh: 2.1; LANA-H2A inh: -1.2; UCH37 inh: 3.9; HNF4A DNA FP: -0.8; Vif TR-FRET: inconclusive; Beta2AR agonist: -6.5; Ecoli growth: 0.726

What do the screens show for `CCc1nnc(NC(=O)c2cc(-c3ccccn3)nc3ccc(Br)cc23)s1`?
A1 inh: 0.1; LANA-H2A inh: -1.3; UCH37 inh: 5.3; HNF4A DNA FP: -0.7; Beta2AR agonist: 0.5; Ecoli growth: 0.733

What do the screens show for `CCc1ccc(-c2cc3c(=O)n(CC(=O)NCCCN4CCC(Cc5ccccc5)CC4)nc(C)n3n2)cc1`?
A1 inh: 1.2; LANA-H2A inh: -1.3; UCH37 inh: 1.9; HNF4A DNA FP: -1.0; Beta2AR agonist: 16.0; Ecoli growth: 0.619

Results for COc1ccc(N2CC(C(=O)Nc3cc(C(F)(F)F)ccc3N3CCCC3)CC2=O)c(OC)c1 (stereo not given) ?
A1 inh: 0.8; LANA-H2A inh: 3.1; UCH37 inh: 4.9; HNF4A DNA FP: 3.9; Vif TR-FRET: 0.7%; Beta2AR agonist: 4.0; Ecoli growth: 0.649

How did Cc1cccc(C(=O)OCC(=O)N(CC(C)C)c2c(N)n(Cc3ccccc3)c(=O)[nH]c2=O)c1O do in these assays?
A1 inh: 0.1; LANA-H2A inh: -2.3; UCH37 inh: 3.2; HNF4A DNA FP: 0.9; Vif TR-FRET: -1.9%; Beta2AR agonist: 5.8; Ecoli growth: 0.653

What do the screens show for `O=C(C1CCC1)N1CCc2cc(S(=O)(=O)N3CCN(c4ccccn4)CC3)ccc21`?
A1 inh: 1.5; LANA-H2A inh: 5.6; UCH37 inh: 1.3; HNF4A DNA FP: 2.4; Vif TR-FRET: 24.4%; Beta2AR agonist: -3.0; Ecoli growth: 0.777

How did CC(=O)N1CCOc2ccc(S(=O)(=O)Nc3ccc(Cl)cn3)cc21 do in these assays?
A1 inh: 0.8; LANA-H2A inh: -7.3; UCH37 inh: 2.3; HNF4A DNA FP: -2.7; Vif TR-FRET: -2.5%; Beta2AR agonist: -2.0; Ecoli growth: 0.681

Results for COc1cc(C(=O)NCC(=O)NCC(c2ccco2)N2CCCCC2)cc(OC)c1OC (stereo not given) ?
A1 inh: -0.8; LANA-H2A inh: inactive; UCH37 inh: 0.6; HNF4A DNA FP: -2.7; Vif TR-FRET: -3.0%; Beta2AR agonist: -9.5; Ecoli growth: 0.674

Results for COc1cc(NS(=O)(=O)c2c(C)[nH]c(C)c2C(=O)N2CCCCC2)cc(OC)c1OC ?
A1 inh: 0.0; LANA-H2A inh: -5.0; UCH37 inh: 1.3; HNF4A DNA FP: 0.1; Vif TR-FRET: 9.4%; Beta2AR agonist: -2.5; Ecoli growth: 0.669

What do the screens show for `O=C(CSc1nnc(NC(=O)c2ccco2)s1)Nc1ccccc1F`?
A1 inh: 1.0; LANA-H2A inh: -4.8; UCH37 inh: 5.1; HNF4A DNA FP: -2.1; Vif TR-FRET: -3.9%; Beta2AR agonist: -5.0; Ecoli growth: 0.683

What do the screens show for `COc1cccc(OCCCCSc2ncccn2)c1`?
A1 inh: 0.2; LANA-H2A inh: -0.4; UCH37 inh: -1.6; HNF4A DNA FP: 0.7; Vif TR-FRET: 6.5%; Beta2AR agonist: -0.7; Ecoli growth: 0.724

What do the screens show for `CCN1C(=O)[C@H]2[C@H]3CN=C(SCc4ccc(C#N)cc4)N3[C@@](C)(C(=O)OC)[C@H]2C1=O`?
UCH37 inh: -1.9; HNF4A DNA FP: 3.1; Vif TR-FRET: -2.8%; Beta2AR agonist: 5.6; Ecoli growth: 0.699

For reference, some entries already given:
What do the screens show for `CCc1ccc(-c2cc3c(=O)n(CC(=O)NCCCN4CCC(Cc5ccccc5)CC4)nc(C)n3n2)cc1`?
A1 inh: 1.2; LANA-H2A inh: -1.3; UCH37 inh: 1.9; HNF4A DNA FP: -1.0; Beta2AR agonist: 16.0; Ecoli growth: 0.619

Results for COc1ccc(N2CC(C(=O)Nc3cc(C(F)(F)F)ccc3N3CCCC3)CC2=O)c(OC)c1 (stereo not given) ?
A1 inh: 0.8; LANA-H2A inh: 3.1; UCH37 inh: 4.9; HNF4A DNA FP: 3.9; Vif TR-FRET: 0.7%; Beta2AR agonist: 4.0; Ecoli growth: 0.649

How did Cc1cccc(C(=O)OCC(=O)N(CC(C)C)c2c(N)n(Cc3ccccc3)c(=O)[nH]c2=O)c1O do in these assays?
A1 inh: 0.1; LANA-H2A inh: -2.3; UCH37 inh: 3.2; HNF4A DNA FP: 0.9; Vif TR-FRET: -1.9%; Beta2AR agonist: 5.8; Ecoli growth: 0.653

What do the screens show for `O=C(C1CCC1)N1CCc2cc(S(=O)(=O)N3CCN(c4ccccn4)CC3)ccc21`?
A1 inh: 1.5; LANA-H2A inh: 5.6; UCH37 inh: 1.3; HNF4A DNA FP: 2.4; Vif TR-FRET: 24.4%; Beta2AR agonist: -3.0; Ecoli growth: 0.777

How did CC(=O)N1CCOc2ccc(S(=O)(=O)Nc3ccc(Cl)cn3)cc21 do in these assays?
A1 inh: 0.8; LANA-H2A inh: -7.3; UCH37 inh: 2.3; HNF4A DNA FP: -2.7; Vif TR-FRET: -2.5%; Beta2AR agonist: -2.0; Ecoli growth: 0.681

Results for COc1cc(C(=O)NCC(=O)NCC(c2ccco2)N2CCCCC2)cc(OC)c1OC (stereo not given) ?
A1 inh: -0.8; LANA-H2A inh: inactive; UCH37 inh: 0.6; HNF4A DNA FP: -2.7; Vif TR-FRET: -3.0%; Beta2AR agonist: -9.5; Ecoli growth: 0.674

(list continues)
What do the screens show for `CN1CCN(S(=O)(=O)c2ccc(C#N)cc2)C(c2ccccc2)C1` (stereo not given)?
A1 inh: -0.2; LANA-H2A inh: -7.4; UCH37 inh: 1.3; HNF4A DNA FP: -0.1; Vif TR-FRET: -10.8%; Beta2AR agonist: 0.4; Ecoli growth: 0.695

What do the screens show for `O=C(Nc1ccccc1F)c1ccc(Cn2cc(Cl)cn2)cc1`?
A1 inh: -3.7; LANA-H2A inh: 1.7; UCH37 inh: -0.4; HNF4A DNA FP: -3.4; Vif TR-FRET: -4.5%; Beta2AR agonist: 1.4; Ecoli growth: 0.639

How did CCOc1cc(NC(=S)NCCCN(C)C)c(OCC)cc1NC(=O)c1cccs1 do in these assays?
A1 inh: 0.2; LANA-H2A inh: -0.9; UCH37 inh: 3.1; HNF4A DNA FP: 1.9; Beta2AR agonist: -23.3; Ecoli growth: 0.682

What do the screens show for `COc1ccc(S(=O)(=O)N2CCC(NC(=O)C(Cc3cccc(OC)c3OC)NC(C)=O)CC2)cc1` (stereo not given)?
A1 inh: -0.1; LANA-H2A inh: -0.5; UCH37 inh: 0.6; HNF4A DNA FP: -1.8; Vif TR-FRET: -2.9%; Beta2AR agonist: -3.4; Ecoli growth: 0.673

What do the screens show for `CCCCCCCN1C=CC(=O)CC1`?
A1 inh: -0.1; LANA-H2A inh: 1.2; UCH37 inh: 4.8; HNF4A DNA FP: -5.6; Beta2AR agonist: -0.5; Ecoli growth: 0.673

Results for O=C1CC(N2CCN(C3CC(=O)N(CCc4ccccc4)C3=O)CC2)C(=O)N1CCc1ccccc1 (stereo not given) ?
A1 inh: 0.0; LANA-H2A inh: 2.8; UCH37 inh: 5.5; HNF4A DNA FP: 2.8; Vif TR-FRET: 1.2%&-6.9%; Beta2AR agonist: -5.1; Ecoli growth: 0.698

What do the screens show for `O=C(CCCN1C(=O)CSc2ncccc21)N1CCN(c2cccc(C(F)(F)F)c2)CC1`?
A1 inh: -0.4; LANA-H2A inh: -2.5; UCH37 inh: -1.5; HNF4A DNA FP: 0.5; Vif TR-FRET: 0.9%&0.8%; Beta2AR agonist: 2.2; Ecoli growth: 0.74

What do the screens show for `O=c1ccsc2ccccc12`?
UCH37 inh: 6.6; HNF4A DNA FP: 3.9; Ecoli growth: 0.7

What do the screens show for `CSc1ccccc1-c1nnc(-c2ccc(Cl)cc2)o1`?
A1 inh: -2.9; LANA-H2A inh: 7.3; UCH37 inh: -2.1; HNF4A DNA FP: -3.7; Vif TR-FRET: 30.4%; Beta2AR agonist: -4.3; Ecoli growth: 0.737

What do the screens show for `CC(=O)CC1(OC(C)=O)C(=O)N(C)c2ccccc21` (stereo not given)?
A1 inh: 0.5; LANA-H2A inh: 1.5; UCH37 inh: -0.9; HNF4A DNA FP: -0.7; Beta2AR agonist: 9.5; Ecoli growth: 0.651

How did CCS(=O)(=O)c1ccc2oc(SCC(=O)Nc3ccc(OC)cc3OC)nc2c1 do in these assays?
A1 inh: 0.2; LANA-H2A inh: 4.2; UCH37 inh: 0.4; HNF4A DNA FP: 3.8; Vif TR-FRET: -4.4%; Beta2AR agonist: -1.8; Ecoli growth: 0.723

What do the screens show for `CC1(C)Cc2c(c(-c3ccco3)nc3sc4c(NCCO)ncnc4c23)CO1`?
A1 inh: 0.9; LANA-H2A inh: 0.5; UCH37 inh: -19.8; HNF4A DNA FP: -1.6; Vif TR-FRET: 19.1%; Beta2AR agonist: 100.5*; Ecoli growth: 0.707

What do the screens show for `CCOc1ccc2c(c1)C(C)=CC(C)(C)N2`?
A1 inh: 0.1; LANA-H2A inh: -66.8; HNF4A DNA FP: 0.6; Beta2AR agonist: -0.7

Results for O=C(C1CC1)N1CCN(c2ccc([N+](=O)[O-])cc2-n2cccc2)CC1 ?
A1 inh: 0.9; LANA-H2A inh: -2.3; UCH37 inh: 5.4; HNF4A DNA FP: -1.5; Vif TR-FRET: 9.3%; Beta2AR agonist: 0.8; Ecoli growth: 0.656

Results for CC(C)(C)C1CCc2onc(C(=O)N3CCOCC3)c2C1 (stereo not given) ?
A1 inh: -0.2; LANA-H2A inh: 2.9; UCH37 inh: -0.2; HNF4A DNA FP: 4.5; Vif TR-FRET: -2.1%; Beta2AR agonist: -14.9; Ecoli growth: 0.731

What do the screens show for `CCOC(=O)N1CCN(c2cc(NCCC(=O)O)c3c4c(onc24)-c2ccccc2C3=O)CC1`?
A1 inh: -2.2; LANA-H2A inh: 36.6*; UCH37 inh: 26.8*; HNF4A DNA FP: 96.8; Vif TR-FRET: inconclusive; Beta2AR agonist: -6.4; Ecoli growth: 0.927

What do the screens show for `C=CCSc1nc2ccccc2n2cnnc12`?
A1 inh: -0.8; LANA-H2A inh: 0.3; UCH37 inh: 4.6; HNF4A DNA FP: 3.9; Vif TR-FRET: -9.7%; Beta2AR agonist: -1.6; Ecoli growth: 0.663

What do the screens show for `O=c1ncn(-c2ccccc2C(F)(F)F)c2ncccc12`?
A1 inh: 0.5; LANA-H2A inh: -3.9; UCH37 inh: 2.3; HNF4A DNA FP: -0.8; Vif TR-FRET: -2.3%; Beta2AR agonist: -0.9; Ecoli growth: 0.689

How did O=C(N/N=C/c1coc2ccccc2c1=O)c1ccccc1Br do in these assays?
A1 inh: -0.4; LANA-H2A inh: -1.9; HNF4A DNA FP: 3.1; Beta2AR agonist: 9.4

How did COc1ccc(-c2cn(CCC(=O)O)c(-c3ccc(Cl)nc3)n2)cc1 do in these assays?
A1 inh: 1.4; LANA-H2A inh: -2.3; UCH37 inh: -0.6; HNF4A DNA FP: -1.7; Beta2AR agonist: -5.9; Ecoli growth: 0.699

Results for COC(=O)CSc1nc(NCC(C)C)nc(N2CCOCC2)n1 ?
A1 inh: 1.2; LANA-H2A inh: -3.3; UCH37 inh: 1.6; HNF4A DNA FP: -1.8; Vif TR-FRET: -2.0%; Beta2AR agonist: 16.4; Ecoli growth: 0.674

Random draw from the library. About 2.1% of those tested had a hit in this group.
